Assay outcomes deposited in PubChem by several laboratories.
CBX7 AlphaScr: CBX7 inhibition, primary AlphaScreen; 66,000 tested, 1.1% active; AlphaScreen His6-CBX7 / biotin-H3K27me3 peptide binding; active compounds read low; normalised signal (fraction of DMSO) (no concentration beside the values); in the data active = normalised signal below about 0.5;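 also: 100 nL library stock added to about 20 µL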
Target sequence (O95931 whole entry, looked up): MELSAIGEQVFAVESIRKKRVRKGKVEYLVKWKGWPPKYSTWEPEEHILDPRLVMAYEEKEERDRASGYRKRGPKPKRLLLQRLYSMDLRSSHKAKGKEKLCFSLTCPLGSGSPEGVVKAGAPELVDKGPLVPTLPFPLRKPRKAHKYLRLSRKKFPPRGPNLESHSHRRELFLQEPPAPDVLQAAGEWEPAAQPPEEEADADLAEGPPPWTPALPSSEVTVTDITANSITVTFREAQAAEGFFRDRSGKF
CBX7 AlphaScr z-score: second read-out of CBX7 AlphaScr, no call of its own (marks repeat the call); z-score; measured here: z-score of CBX7 signal; some inactives read as strong as hits; reference of the scale not given here;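 same signal on another scale; lower means less binding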
* hit, by the source's call.

Results follow in this order: CBX7 AlphaScr, CBX7 AlphaScr z-score
- Cc1cccc(N2CCN(S(=O)(=O)c3cnc[nH]3)CC2)c1C
  1.2, 0.43
- CCc1ccc(-c2nc(CN3CCC(C(=O)NCCc4ccc(C)cc4)CC3)c(C)o2)cc1
  0.86, -1.5
- Cc1cccc(N2CCN(C(=O)C3CCN(S(=O)(=O)c4cccc5nsnc45)CC3)CC2)c1C
  0.81, -5.3
- CCc1ccc(-c2nc(SCC(=O)NCCOC)c(-c3ccc(C)cc3)[nH]2)cc1
  0.93, -1.3
- CC(=O)c1ccc(NC(=O)c2cn(-c3ccccc3)nc2-c2cccnc2)cc1
  0.97, -0.31
- COc1ccc(CC(=O)N2CCNc3ccccc3C2)cc1
  1, 0.63
- O=C(CN1CCN(Cc2ccc(Cl)cc2)C1=O)N1CCCC1
  1.1, 1.2
- Cc1ccn2c(Nc3c(C)cccc3C)c(-c3cccs3)nc2c1
  1, 0.058
- CCc1nnc(NC(=O)c2ccc(Cl)cc2Cl)s1
  1.1, 0.61
- CCNS(=O)(=O)c1cc(-c2nnc(Nc3cccc(C(F)(F)F)c3)c3ccccc23)ccc1C
  0.83, -1.9
- CCCc1ccc(-c2ccc(C(=O)Nc3nnc(SCC)s3)cc2)nc1
  1, 0.68
- CCN(CC)c1cc(C)c2cc(NC(=O)COc3ccc(Cl)cc3)ccc2n1
  1, 0.44
- CCOC(=O)c1c(NC(=O)c2cccc(Cl)c2)sc(C(=O)NC2CCCCC2)c1C
  1, 0.55
- O=C(CN1CCN(Cc2ccccc2Cl)C1=O)NC1CCCCCC1
  1.1, 1.2
- COc1ccc(-c2c(C)nn3c(N4CCC(C(=O)N5CCCC5)CC4)cc(C)nc23)cc1OC
  1, 0.061
- Cc1noc(/C=C/c2cccs2)c1S(=O)(=O)N1CCC(C(=O)NC2CCCC2)CC1
  0.98, -0.51
- COc1ccc(C(=O)Nc2nnc(CCSc3cc(Cl)ccc3Cl)s2)cc1OC
  1.2, 0.82
- COc1ccc(NC(=O)c2cnc3scc(C)n3c2=O)c(OC)c1
  0.98, -0.58
- CCN(CC)S(=O)(=O)c1cc(C(=O)Nc2cc(C)on2)ccc1Br
  1, 0.77
- CN1CCN(C(=O)CC2Oc3ccccc3NC2=O)CC1 (centres undefined)
  0.96, -0.21

Other records
Results follow in this order: CBX7 AlphaScr, CBX7 AlphaScr z-score
- CC(=O)Nc1ccccc1NC(=O)c1c(-c2ccccc2Cl)noc1C
  1, 0.74
- CC(=O)Nc1cc(C(=O)NCCc2ccccc2)ccc1Nc1cccc(Cl)c1
  0.78, -3.7
- COc1ccc(N2C(=O)c3ccccc3C2C(=O)NC2CCCCC2)cc1 (centres undefined)
  1, 0.26
- CCOc1ccc(S(=O)(=O)c2cn(Cc3ccccc3C)c3ccc(OCC)cc3c2=O)cc1
  0.97, -1.1
- Cc1ccc2c(c1)-c1c(cnn1CC(=O)NCc1ccc(Cl)cc1)CO2
  0.93, -1.3
- CCCNC(=O)c1noc2c1CCc1ccccc1-2
  1.1, 0.13
- COc1ccccc1Nc1nc(-c2ccccc2)c2cc(C)ccc2n1
  2.3, 24
- COc1nnc(-c2ccc(N3CCOCC3)c(NC(=O)C3CCCCC3)c2)c2ccccc12
  0.96, -0.88
- O=C1CC(N2CCN(c3ccc4c(c3)OCO4)CC2)C(=O)N1c1ccc(Br)cc1 (centres undefined)
  0.86, -2.3
- Cc1cccc(C)c1NC1=NC2CS(=O)(=O)CC2S1 (centres undefined)
  1.1, 3.9
- CSc1oc(-c2ccc(C)cc2)nc1S(=O)(=O)c1ccc(C)cc1
  0.93, -0.58
- Cc1ccc(OCC(O)Cn2c(=N)n(CCN3CCCCC3)c3ccccc32)cc1 (centres undefined)
  0.96, -0.24
- Cc1cc(N2C(=O)CC(Cc3ccccc3)C2=O)no1 (centres undefined)
  1.1, 0.81
- Cc1nc(-c2ccc(NC(=O)c3sc(-c4ccccc4)nc3C)cc2)cs1
  1, -0.018
- Cc1ccc(CN2CC34C=CC(O3)C(C(=O)NCCc3ccccc3)C4C2=O)cc1 (centres undefined)
  0.96, -2
- O=C(Cn1ncc2c1-c1ccccc1OC2)NC1CCCCC1
  1.1, 1.8
- O=C(NCc1ccccc1Cl)c1ccc2nc(N3CCOCC3)sc2c1
  1, 0.47
- COc1ccc(CCNC(=O)c2cc3sccc3n2Cc2ccc(Cl)cc2)cc1OC
  0.81, -5.2
- CCCCOC(=O)c1ccc(NC(=O)c2ccccc2C(=O)c2ncc[nH]2)cc1
  1, 1
- Fc1ccc(Nc2nnc(Cc3cccnc3)c3ccccc23)c(F)c1
  1, 0.95

Further compounds
Results follow in this order: CBX7 AlphaScr, CBX7 AlphaScr z-score
- COc1cccc(C2=NOC(C(=O)NC3CCCCC3)C2)c1 (centres undefined)
  0.99, -0.076
- COCCN1Cc2cccc(C(=O)Nc3ccc(OC)c(OC)c3)c2C1=O
  1, 0.0045
- N#Cc1ccc(C(=O)Nc2nc(-c3ccc(Br)cc3)cs2)cc1
  1.1, 1.7
- CCc1ccc(NC(=O)c2cn(CC(C)C)c(=O)c3cc(OC)c(OC)cc23)cc1
  1, 0.33
- O=C(COCc1cc(-c2ccc(F)cc2)on1)NCc1ccc(Cl)cc1
  1.1, 0.92
- Cc1cc(NC(=O)CSc2ncccn2)no1
  1, 0.69
- CCc1ccc2nc(N3CCC(C(=O)NCCCN4CC(C)CC(C)C4)CC3)sc2c1 (centres undefined)
  1.4, 0.8
- Cc1cccc(-n2nc3c(c2NC(=O)c2c(-c4ccccc4Cl)noc2C)CSC3)c1
  1.1, 2
- O=C(Cc1c(C(=O)O)[nH]c2ccc(Cl)cc12)NC1CCCC1
  1.2, 1.7
- Cc1cccc(NC(=O)c2ccc3c(c2)N(Cc2cccc(Cl)c2)C(=O)c2ccccc2S3=O)n1 (centres undefined)
  0.95, -1.2
- COc1ccc(C(=O)CC2(O)C(=O)N(Cc3ccccc3)c3ccccc32)cc1OC (centres undefined)
  1, 0.0047
- CCCC1=Nc2cc(C(=O)NCC3CCCN3CC)ccc2Sc2ccccc21 (centres undefined)
  0.75, -3.6
- COc1ccc(CNc2nc(-c3ccc(F)cc3)cc(C(F)(F)F)n2)cc1
  1.4, 4.1
- Cc1cc(F)ccc1NC(=O)C1CCCN(C(=O)c2cnn(-c3ccccc3)c2-n2cccc2)C1 (centres undefined)
  1, 0.67
- Cc1nc(C)c(-c2csc(Nc3ccccc3)n2)s1
  0.48*, -10*
- O=S(=O)(c1ccc(Cl)c2ccccc12)N1CCCCCC1
  1.1, 0.17
- O=C(c1ccc2c(c1)OCO2)c1cn(Cc2ccc(Cl)cc2)c2ccc(F)cc2c1=O
  0.84, -0.57
- COc1ccc(NC(=O)Cn2cc(S(=O)(=O)c3ccccc3)c(=O)c3ccccc32)c(OC)c1
  0.94, -2.1
- CCOc1ccc(NC(=O)c2c(NC(=O)c3ccncc3)sc3c2CCC3)cc1
  1.2, 2
- Cn1c(=O)[nH]c(=O)c2c1nc(CN(Cc1ccccc1)Cc1ccccc1)n2CC(N)=O
  1, 1

(listing goes on)
Results follow in this order: CBX7 AlphaScr, CBX7 AlphaScr z-score
- CCOc1ccc(-n2c(Cc3cc(=O)[nH]c(=O)[nH]3)nnc2SCC(=O)c2ccc(OC)cc2)cc1
  1, 0.44
- COc1ccccc1Cc1nc(-c2ccc(C)cc2)no1
  0.87, -1.2
- CCOc1cccc(C2CC(=O)Nc3cc(OC)c(OC)cc32)c1 (centres undefined)
  0.84, -3
- O=C(c1ccc2c(c1)N(Cc1ccccc1)CCS2)N1CCN(c2ccccn2)CC1
  0.62, -0.51
- CN(C1CCCC1)C1CCN(c2ccc3nnc(-c4ccc(F)cc4)n3n2)CC1
  1, 0.13
- O=C(c1cc2ccccn2n1)N1CCN(c2ccc(F)cc2)CC1
  1, 0.099
- Cc1cc(C)c(NC(=O)C(NS(=O)(=O)c2ccc3c(c2)CCC(=O)N3)c2ccccc2)c(C)c1 (centres undefined)
  0.99, -0.25
- CCOC(=O)c1cnc2c(OC)cccc2c1NC(C)CC (centres undefined)
  0.91, -0.1
- Cc1noc(C)c1S(=O)(=O)NCC(=O)Nc1ccc(F)cc1
  1, 0.046
- COc1cccc(C2=NOC(C(=O)Nc3ccc(F)cc3F)C2)c1OC (centres undefined)
  1, 1.2
- COc1cccc(C(=O)Nc2c3c(nn2-c2ccc(Oc4ccccc4)cc2)CSC3)c1
  0.89, -2.7
- O=S(=O)(NCC(Nc1ccccc1)c1ccccc1)c1ccc(Cl)cc1 (centres undefined)
  0.98, -0.15
- Cc1cccc(Cn2c(C3CC(=O)N(c4ccccc4)C3)nc3ccccc32)c1 (centres undefined)
  0.83, -2.4
- O=C(NCCCn1ccnc1)c1cc(-c2ccc(Cl)cc2)on1
  0.98, -1.1
- COc1ccc(CCC(=O)Nc2ccc(-c3noc(-c4ccc(OC)c(OC)c4)n3)cc2)cc1
  1.2, 2.2
- COc1cccc(NC(=O)Nc2nnc(COc3ccccc3F)s2)c1
  1.6, 2.1
- O=C(Cn1ncc2c1-c1ccccc1OC2)N1CCOCC1
  1.1, 1.9
- O=C(CN1CCN(Cc2ccccc2)C1=O)NCCCN1CCOCC1
  0.87, -1.9
- CCCCN(C)C(=O)CSc1nc(NCCc2ccccc2)c2ccccc2n1
  0.97, -1.6
- Cc1ccc(-n2cc(C(=O)NCc3ccccn3)c3ccccc3c2=O)cc1C
  0.94, -1.3

Next section
Results follow in this order: CBX7 AlphaScr, CBX7 AlphaScr z-score
- CCOC(=O)c1cnc2ccc(OCC)cc2c1N1CCC(C(N)=O)CC1
  0.93, -0.08
- CCCn1c(C2CC(=O)N(c3cc(Cl)ccc3OC)C2)nc2ccccc21 (centres undefined)
  1, -0.025
- O=C(CSc1nnc(-c2ccc(Cl)cc2)o1)N1CCCc2ccccc21
  1.2, 3.2
- C=CCN1C(=O)c2ccccc2Sc2ccc(C(=O)NC3CCCC3)cc21
  1, 0.7
- CCCS(=O)(=O)NCCc1cc2c(C)ccc(C)c2[nH]c1=O
  0.93, -1.4
- COc1ccc(-c2cc3c(C)cccn3c2C)cc1OC
  1, 0.32
- Cc1ccc(NC(=O)C(NS(=O)(=O)c2cccs2)C(C)C)cc1F (centres undefined)
  1.1, 2.2
- Clc1cccc(-n2nnnc2C(c2ccccc2)N2CCCCC2)c1 (centres undefined)
  0.97, -0.84
- CCOC(=O)c1cc(-c2ccccc2)n(CCC(=O)Nc2nc3ccc(OC)cc3s2)c1C
  0.8, -3.6
- Cc1nc(Nc2nc3ccccc3c(=O)[nH]2)nc2ccccc12
  1, 0.52
- COc1ccc(C2=NOC(C(=O)Nc3ccc(OC(F)(F)F)cc3)C2)cc1 (centres undefined)
  1, 0.23
- COc1ccc(Nc2nnc(-c3ccccc3)c3ccccc23)cc1C(N)=O
  0.99, -0.027
- Cc1cccc(C(=O)Nc2c(C(=O)Nc3cccc(F)c3)oc3ccccc23)c1
  1.1, 1.4
- Cc1ccc(C)c(NC(=O)C(Cc2ccccc2)NS(=O)(=O)c2cccc3cccnc23)c1 (centres undefined)
  1.1, 0.67
- COc1cc2c(C(=O)NC3CCCCCC3)cn(C)c(=O)c2cc1OC
  1.1, 1.6
- COc1cccc(CNCCO)c1OCc1ccccc1F
  0.99, -0.31
- COC(=O)CN(c1nc(C)cc(OC)n1)S(=O)(=O)c1ccc(C)cc1
  0.98, -0.89
- O=C(Nc1ccc(Br)cc1F)c1cnc2ccccn2c1=O
  1.1, 2
- COc1ccc(N2CCN(C(c3cccs3)C(C)NS(C)(=O)=O)CC2)cc1 (centres undefined)
  0.95, -1.2
- Cc1nc2ncnn2c(C)c1CCC(=O)N1CCN(c2ccccn2)CC1
  1.1, 1.6

Next compounds:
Results follow in this order: CBX7 AlphaScr, CBX7 AlphaScr z-score
- CCOC(=O)c1cnn(-c2ccc(C)cc2)c1C1CCN(C(=O)OC(C)(C)C)CC1
  0.98, -0.72
- COc1cc(Nc2nc(-c3cc(C)ccc3C)cs2)c(OC)cc1Cl
  0.69, -11
- COc1ccc(N2C(=O)CC(N3CCC(C(N)=O)CC3)C2=O)cc1 (centres undefined)
  1.1, 1.9
- CCOc1ccc(S(=O)(=O)c2cn(Cc3ccccc3F)c3ccc(OC)cc3c2=O)cc1
  0.92, -3
- Cc1sc(NC(=O)c2cccnc2)nc1-c1ccc(-c2ccccc2)cc1
  1, -0.0096
- COc1ccc(C2CC(C(F)(F)F)n3nc(C(=O)NC4CCCCC4)c(Cl)c3N2)cc1 (centres undefined)
  0.99, -0.23
- COc1ccc(CCNC(=O)C2CCC(=O)N2Cc2ccc(C)cc2)cc1OC (centres undefined)
  1.1, 1.7
- CCN(CC)CCNC(=O)c1ccc2c(c1)N(Cc1cc(C)ccc1C)C(=O)CS2
  0.96, -0.76
- c1ccc(COc2nsnc2N2CCOCC2)cc1
  0.76, -5.9
- NS(=O)(=O)c1ccc(CCNS(=O)(=O)c2ccc3c(c2)CCC(=O)N3)cc1
  0.95, -1.2
- O=C(NCCN1CCN(Cc2ccccc2)CC1)Nc1ccccc1C(F)(F)F
  1.1, 0.081
- CC1(C)Nc2ccccc2N(CC(=O)N2CCCCC2)C1=O
  1, 0.55
- COc1cc2c(C(=O)N3CCC(C(N)=O)CC3)cn(CC(C)C)c(=O)c2cc1OC
  1, -0.049

Some of the compounds tested (hit frequency here may not be typical).
